FGF22 binding – binders of human FGF22 protein, primary screen, FGF22 synaptogenesis inhibitor project, biophysical, thermal shift, single point. actives 1.5% (n = 340,000). calls only at 9.99 µM. recombinant FGF22 thermal shift, SYPRO orange fluorescence; percent of sucrose octasulfate shift, DMSO zero. Fibroblast growth factor 22 (Homo sapiens), Q9HCT0. AID 651658, 2012;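 active = melting point raised past a set limit in the mean and every replicate; inconclusive = no clear call; three in four hits are not shown here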
Target sequence (Q9HCT0 whole entry, looked up): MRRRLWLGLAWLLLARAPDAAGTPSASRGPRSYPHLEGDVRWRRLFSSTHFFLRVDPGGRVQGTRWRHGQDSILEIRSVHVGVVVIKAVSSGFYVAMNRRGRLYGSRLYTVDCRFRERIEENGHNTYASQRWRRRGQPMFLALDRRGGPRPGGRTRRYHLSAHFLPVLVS
AF4-AF9 inh – inhibitors of AF4 peptide binding to AF9, primary screen, biochemical, AlphaScreen, biotin-AF4 peptide, FLAG-AF9, single point; inhibition, % at 10 µM; actives 0.47% (n = 350,000);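 active = every replicate reaching a set inhibition limit, whatever the replicate mean, cut at about 25% in these data; inconclusive = mean inhibition reaches that limit but some replicates miss it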;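 note: 0% = plate neutral control median and 100% = total signal loss; the record names both 10 and 1 µM as test concentration; the first replicate is given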
Target sequence (P42568 whole entry, looked up): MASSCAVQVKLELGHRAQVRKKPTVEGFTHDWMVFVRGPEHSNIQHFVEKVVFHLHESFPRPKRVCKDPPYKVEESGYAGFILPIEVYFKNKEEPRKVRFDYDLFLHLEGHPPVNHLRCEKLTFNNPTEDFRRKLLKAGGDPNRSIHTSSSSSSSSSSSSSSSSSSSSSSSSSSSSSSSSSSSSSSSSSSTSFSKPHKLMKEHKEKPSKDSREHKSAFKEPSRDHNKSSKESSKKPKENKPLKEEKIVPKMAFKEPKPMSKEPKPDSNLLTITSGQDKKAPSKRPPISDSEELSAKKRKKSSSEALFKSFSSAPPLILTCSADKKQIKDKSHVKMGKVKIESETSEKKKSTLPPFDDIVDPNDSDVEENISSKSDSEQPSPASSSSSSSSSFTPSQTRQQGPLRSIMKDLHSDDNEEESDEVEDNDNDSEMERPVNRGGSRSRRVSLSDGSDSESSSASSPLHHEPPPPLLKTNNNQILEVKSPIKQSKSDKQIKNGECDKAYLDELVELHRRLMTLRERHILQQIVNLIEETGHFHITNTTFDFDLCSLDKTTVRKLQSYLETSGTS
UCH37 DUB inh – inhibitors of human UCH37 deubiquitinase, primary screen, biochemical, Ub-AMC cleavage, fluorescence; Ubiquitin carboxyl-terminal hydrolase isozyme L5 (Homo sapiens), Q9Y5K5; purified proteasome/UCH37; inhibition, % (test concentration not listed); actives 0.33% (n = 330,000);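 active = mean of two replicates above 20%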;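 note: 0% = compound-free wells with enzyme and 100% = wells lacking proteasome; stock transfer was 100 nL into about 20 µL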
Target sequence (Q9Y5K5 whole entry, looked up): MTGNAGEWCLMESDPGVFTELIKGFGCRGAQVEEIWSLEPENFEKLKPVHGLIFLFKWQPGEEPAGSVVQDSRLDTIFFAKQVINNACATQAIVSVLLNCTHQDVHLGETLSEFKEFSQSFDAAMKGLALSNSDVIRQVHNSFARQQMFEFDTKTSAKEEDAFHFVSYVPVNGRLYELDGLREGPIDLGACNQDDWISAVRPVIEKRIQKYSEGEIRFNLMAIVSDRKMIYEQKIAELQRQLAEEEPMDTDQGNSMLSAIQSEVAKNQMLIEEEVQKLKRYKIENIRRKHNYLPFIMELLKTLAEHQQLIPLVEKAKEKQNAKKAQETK
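Material: Human UCH37 enzyme supplied as purified proteasome complex | Schedule: 30 min preincubation with enzyme, 25 min cleavage at room temperature | Detection: AMC fluorescence 355/460 nm | Measure: % inhibition of Ub-AMC cleavage fluorescence | Controls: Wells without proteasome as full block, compound-free enzyme plus substrate as uninhibited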
E coli growth – E. coli growth inhibition, primary screen, OD600. OD600 absorbance (test concentration not listed). AID 1053175, 2014. Escherichia coli growth, 23 h; hits give low values. actives 0.21% (n = 330,000);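 active = OD600 absorbance below the run mean of sample wells minus 3.6 SD, in any replicate, cut at about 0.56 in these data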;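 note: stock transfer was 300 nL into about 60 µL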
Vif TR-FRET – inhibitors of Vif binding to APOBEC3G peptide, primary screen, biochemical, TR-FRET, GST-Vif 1-94, biotin-A3G peptide, dose response retest (AID 1117319). TR-FRET GST-Vif / biotin-A3G peptide binding; higher % means a stronger effect; test concentration not given here; strong numbers were not always called active. inhibition, %; hits with a dose series show IC50 in µM. Virion infectivity factor (Human immunodeficiency virus type 1 group M subtype B (isolate …. actives 0.57% (n = 260,000);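 active = above the screen mean plus three standard deviations and confirmed in dose response; inconclusive = results disagree or hit not tested in dose response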;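 note: Vif residues 1-94 fused to GST binding biotinylated APOBEC3G peptide 110-148; 0% = full assay without inhibitor and 100% = GST in place of GST-Vif; retest series ran down from 100 µM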
RanGTP-Imp inh – inhibitors of RanGTP-importin-beta interaction, primary screen, biochemical, FRET, CFP-Ran, YFP-importin-beta, homogeneous. Ran GTPase (GTP-bound) - importin-beta complex. cell-free CFP-Ran/YFP-importin-beta FRET ratio. inhibition, % (concentration not given with the values). actives 1.1% (n = 300,000);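 active = most replicates above 15%; inconclusive = exactly half above 15%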;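 note: 0% = DMSO wells and 100% = Ran loaded with GDP instead of GTP; wells of about 40 µL received 100 nL stock; the first replicate is given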
HNF4A DNA FP – change in binding of human HNF4A to DNA, primary screen, biochemical, fluorescence polarization, FITC-DNA; Hepatocyte nuclear factor 4-alpha (Homo sapiens), P41235; actives 0.3% (n = 360,000); activity change, % at 10 µM; 1 h; AID 1224865, 2016; in the data active = activity change above about 30%, passing the limit was not always enough;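 note: controls were the assay level and a saturating level of protein; the project sought stronger binding though the title names inhibitors; some compounds called inactive have numbers as strong as hits; positive values seem to mean higher polarization but the record does not say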
Numbers without * were called inactive; i = inactive; ? = inconclusive; nt = no result given; & = joins results of further samples. An excerpt; rates above refer to the full screens.

SMILES	FGF22 binding	AF4-AF9 inh	UCH37 DUB inh	E coli growth	Vif TR-FRET	RanGTP-Imp inh	HNF4A DNA FP
COc1ccc(NS(=O)(=O)c2ccc(NC(=S)NC(=O)c3cccnc3)cc2)nn1	i	-2.3	4.8	0.673	-1.4%	5.3	-0.5
CCN(C(=O)COC(=O)c1ccc(C)c(S(=O)(=O)N2CCOCC2)c1)C1CCS(=O)(=O)C1 (stereo not given)	i	-2.2	3.4	0.721	10.4%	-0.7	-1.0
COc1ccc2c(C(=O)c3ccc(C)cc3)n(CCCC(N)=O)[n+]([O-])c2c1	i	3.2	2.3	0.648	nt	-1.3	3.1
COc1ccccc1C(=O)Nc1cccc(NC(=O)c2ccccc2C)c1	i	-28.3	nt	nt	5.4%	1.0	2.3
O=C(C1CCCN(CCCc2ccccc2)C1)N1CCCCC1 (stereo not given)	nt	nt	2.1	0.697	-6.6%	0.1	0.9
Cc1ccccc1NC(=O)c1cc(N)ccc1N1CCCCC1	nt	nt	-14.3	0.724	0.2%	nt	4.8
CCCC(=O)Nc1nc2ccc(OC)cc2s1	i	2.0	4.4	0.684	18.0%	-0.3	2.6
COc1cc(NC(=O)CCc2c(C)noc2C)c(Cl)cc1C(=O)O	i	9.4	4.9	0.683	-4.5%	nt	-1.6
Cc1ccnc(NS(=O)(=O)c2ccc(NC(=O)c3c(-c4ccccc4Cl)noc3C)cc2)n1	nt	nt	0.9	0.683	-2.2%	1.1	1.7
CCN(CC)S(=O)(=O)c1cccc(C(=O)N[C@H](C(=O)Nc2nc3ccccc3s2)C(C)C)c1	i	0.4	-14.3	0.737	17.8%	0.4	4.4
Cc1c(C(=O)NCc2ccc3c(c2)OCCO3)sc(=O)n1Cc1ccccc1C#N	i	4.4	nt	nt	nt	nt	2.4
CCCOc1ccc(N2C(=O)CC(NCCNc3ccc([N+](=O)[O-])cn3)C2=O)cc1 (stereo not given)	i	-3.2	11.3	0.692	1.4%	0.1	-3.8
CSC1=NCCN1C(=O)c1c(-c2c(F)cccc2Cl)noc1C	i	5.2	3.7	0.664	-1.1%	-2.4	0.6
CC(=O)c1ccc(NC(=O)Nc2ccc(Cl)cc2)cc1	i	-33.4	-0.7	0.55	0.2%	1.5	4.2
CCOC(=O)C1=C(c2cccc(Oc3ccccc3)c2)NC(=S)NC1C (stereo not given)	nt	nt	3.9	0.722	-1.6%	-1.3	1.5
CCCCCCCNC(=O)C1(CC2CC(c3cccc(Br)c3)=NO2)CCN(C(=O)C2CCCC2)CC1 (stereo not given)	i	-0.3	2.6	0.735	nt	1.7	1.1
CC(=O)Nc1ccc(S(=O)(=O)NCCC(=O)OCc2ccc([N+](=O)[O-])cc2)cc1	i	-0.1	4.3	0.685	nt	2.6	-0.6
COC(=O)c1ccc(/C=C/c2c(-c3ccc(OC)cc3)sc3ccccc23)cc1	i	4.6	-57.5	nt	nt	nt	0.3
COc1cc(CNC(=O)c2cccc(COc3ccc(Cl)cc3)c2)cc(OC)c1	i	0.3	2.4	0.729	nt	-2.2	1.8
CCC(C)NC(=O)C1CCN(S(=O)(=O)c2cc([N+](=O)[O-])ccc2Cl)CC1 (stereo not given)	i	-7.8	0.6	0.672	-0.5%	-0.4	-22.3
C[C@@H](O)C1NC(=O)[C@H](CCCCN)NC(=O)c2cc([N+](=O)[O-])cc(F)c2NCCCC[C@@H](C(N)=O)NC1=O (stereo not given in full)	nt	nt	4.8	nt	?	5.2	3.2
Cc1ccc(S(=O)(=O)CCC(=O)Nc2nc(-c3cccnc3)cs2)cc1	i	0.3	-2.3	0.654	7.0%	1.8	0.8
O=C(CSc1oc(-c2ccco2)nc1S(=O)(=O)c1ccc(Cl)cc1)NCC1CCCO1 (stereo not given)	nt	nt	2.5	0.695	12.1%&5.6%	-1.8	2.3
CCOc1ccccc1NC(=S)N(Cc1cc2ccc(C)cc2[nH]c1=O)CC1CCCN1CC (stereo not given)	nt	nt	1.1	0.67	nt	7.3	1.5
CC(OC(=O)CCCOc1ccccc1)C(=O)Nc1ccc(Cl)cn1 (stereo not given)	i	4.2	2.1	0.683	-0.3%	1.0	-5.0
Cc1nc2ccccc2n1CC(=O)N/N=C/c1cccnc1	i	-0.8	nt	nt	11.4%	3.8	1.7
Cc1ccc(Br)c(NS(=O)(=O)c2cccc(C(=O)N3CCNC(=O)C3)c2)c1	i	2.5	-2.4	0.717	nt	nt	-2.4
Cc1ccc(-c2csc3nc(C)n(N)c(=O)c23)cc1	i	-0.5	5.5	0.708	?	-2.3	-1.0
COc1ccc(N2CCN(C(=O)CCNC(=O)Cn3ccc4ccccc4c3=O)CC2)cc1	i	6.2	0.8	0.685	nt	1.0	3.7
C/C(=N\NC(=O)C(O)c1ccccc1)c1ccc(Br)s1 (stereo not given)	i	3.7	nt	nt	-0.8%	1.0	0.2

Next section (5 carried over from the part before).
SMILES	FGF22 binding	AF4-AF9 inh	UCH37 DUB inh	E coli growth	Vif TR-FRET	RanGTP-Imp inh	HNF4A DNA FP
Cc1nc2ccccc2n1CC(=O)N/N=C/c1cccnc1	i	-0.8	nt	nt	11.4%	3.8	1.7
Cc1ccc(Br)c(NS(=O)(=O)c2cccc(C(=O)N3CCNC(=O)C3)c2)c1	i	2.5	-2.4	0.717	nt	nt	-2.4
Cc1ccc(-c2csc3nc(C)n(N)c(=O)c23)cc1	i	-0.5	5.5	0.708	?	-2.3	-1.0
COc1ccc(N2CCN(C(=O)CCNC(=O)Cn3ccc4ccccc4c3=O)CC2)cc1	i	6.2	0.8	0.685	nt	1.0	3.7
C/C(=N\NC(=O)C(O)c1ccccc1)c1ccc(Br)s1 (stereo not given)	i	3.7	nt	nt	-0.8%	1.0	0.2
CN(C)CC(C)(C)CNC(=O)CC1C(=O)NCCN1Cc1ccc(-c2ccccc2)cc1 (stereo not given)	i	4.0	1.8	0.715	-0.8%	6.9	-1.9
CCOC(=O)C1=C(C)C(c2ccc(OC)cc2)NC(=S)N1 (stereo not given)	nt	nt	2.0	0.658	-3.3%	-2.7	0.2
CCC1(CC)C(=O)N(C)C(=O)NC1=NCc1ccccc1	nt	nt	1.4	0.693	-0.7%	1.1	0.0
CC(=O)C1=C(O)C(=O)N(c2ccc(Br)cc2)C1c1ccccc1[N+](=O)[O-] (stereo not given)	i	1.2	7.0	0.649	nt	0.1	-0.6
O=C(NC(=S)Nc1ccc(CN2CCOCC2)cc1)c1ccc2c(c1)OCCO2	i	4.8	1.8	0.62	-6.8%	0.3	0.0
COCCn1c(SCC(=O)N2CCCC2)nc2c(c1=O)SCC2	i	-3.8	nt	nt	nt	nt	-3.8
COc1cc(-c2nnc(SCC3(c4ccc(Br)cc4)OCCO3)o2)cc(OC)c1OC	nt	nt	-0.3	0.742	-0.9%	3.7	0.0
Cc1nnc(C)c2c(C)n(Cc3ccc4c(c3)OCO4)c(C)c12	nt	nt	-22.0	0.671	7.2%	3.6	18.1
Cc1[nH]nc(Sc2ccccn2)c1[N+](=O)[O-]	nt	nt	5.2	0.643	nt	-2.5	0.6
Nc1nc(SCC(=O)c2c(N)n(C3CC3)c(=O)[nH]c2=O)n[nH]1	i	-0.4	-0.8	0.692	0.8%	nt	6.0
COc1cc(/C=C/c2[nH]c(=O)[nH]c(=O)c2[N+](=O)[O-])ccc1OCCC(C)C	nt	-3.7	8.4	0.642	15.3%	-45.9	1.1
O=C(c1cc2nc(-c3ccccc3)cc(C(F)(F)F)n2n1)N1CCCC1	i	4.5	-93.6	0.743	nt	nt	1.1
COc1ccc([C@H]2[C@H](C(=O)OC(C)(C)C)N3N=Cc4ccccc4C3C23C(=O)c2ccccc2C3=O)cc1OC (stereo not given in full)	nt	3.1	3.8	0.674	18.8%	-1.3	1.2
O=S(=O)(c1ccc(Br)cc1)c1nc(-c2ccccc2)oc1N1CCOCC1	i	5.5	0.6	0.701	0.4%	6.2	7.3
CC1(C)CC(NC(=O)C2CCC(=O)N(Cc3ccccc3F)C2)CC(C)(C)C1 (stereo not given)	i	0.5	1.7	0.706	nt	-1.0	-0.1
Cc1ccc(CCC(=O)Nc2ccccc2F)s1	i	-1.1	4.6	0.681	-2.0%	1.8	-0.1
COc1cc(C(=O)Nc2cc(C)nn2-c2ccccc2)cc(OC)c1OC	i	-0.4	7.4	0.556	nt	-4.1	-2.6
O=C(Nc1cccnc1)c1ccc(Cl)c(S(=O)(=O)N2CCOCC2)c1	i	-9.6	2.6	0.679	nt	8.3	2.3
Cc1cc(C)c(C)c(S(=O)(=O)N2CCN(C(=O)c3ccccn3)CC2)c1C	i	-0.2	2.7	0.705	4.9%	nt	0.4
COc1cc(S(=O)(=O)n2cnc(C)c2)ccc1Cl	i	-3.3	1.6	0.628	1.7%	3.4	-0.8
O=[N+]([O-])c1ccc(C2CN=C(Nc3ccccc3)S2)cc1 (stereo not given)	i	3.4	0.2	0.697	1.1%	-2.2	-2.5
O=C(/C=C/c1cn(-c2ccccc2)nc1-c1cccc(Cl)c1)N1CCN(c2ccccn2)CC1	i	3.6	0.8	0.761	1.1%	1.5	1.7
COCc1nc(-c2cc(Br)ccc2OC)no1	nt	nt	1.1	0.759	3.2%	1.0	1.3
O=C(CCS(=O)(=O)c1cccc2nonc12)Nc1ccc(Br)cc1	i	2.2	1.4	0.653	nt	?	-1.6
O=C(Nc1ccc(F)cc1F)N1CCCN(c2ccc(C(F)(F)F)cn2)CC1	i	-1.8	1.7	0.676	-4.9%	0.6	2.1
C#CCN(C)Cc1ccccc1	i	-2.0&-2.6	0.0	0.698	nt	-1.0	3.6
COCCCn1c(SC(C)C(=O)Nc2c(C)n(C)n(-c3ccccc3)c2=O)n[nH]c1=O (stereo not given)	i	0.2	-0.2	0.722	-3.1%	nt	-5.7
CCOC(=O)C1=C(C)N(c2ccc(Cl)cc2)C(=O)NC1c1cccc([N+](=O)[O-])c1 (stereo not given)	i	0.8	3.3	0.701	nt	1.5	0.9
Cc1oc(C)c2c(=O)ccc3c(c12)OC(N)=C(C#N)C3c1ccccc1 (stereo not given)	nt	nt	-2.4	0.706	>52.5µM*	5.3	5.1
COc1cccc2sc(=NC(=O)CS(=O)(=O)c3ccccc3)n(C)c12	i	0.7	nt	nt	-72.0%	nt	1.6
c1ccc(-n2ncc3c(NCc4ccccn4)ncnc32)cc1	i	-2.5	1.9	0.754	-9.7%	-4.5	-0.9
O=c1[nH]c2ccc(S(=O)(=O)N3CCN(c4ccccc4F)CC3)cc2s1	nt	nt	5.2	0.657	11.4%	3.5	-2.1
COc1ccccc1NC(=O)COC(=O)COc1cccc2c1OC(C)(C)C2	i	-1.6	0.3	0.615	-1.5%	-2.0	4.2
O=C(NC1=NCCS1)c1ccc(N2CCCC2=O)cc1	i	-1.4	0.2	0.529*	-5.3%	-0.2	-2.2
CCOc1ccc(NC(=O)CN(C)C(=O)C2CC2C)cc1OCC (stereo not given)	i	0.3	5.4	0.705	0.5%	nt	-2.8
COc1cc(Cl)c(C)cc1NC(=O)c1ccc2c(c1)OCO2	i	5.3	-11.4	0.738	-4.1%	2.6	-3.7

Compound activity as filed in PubChem.
